Rango-impB inh: qHTS Assay for Inhibitors of Rango (Ran-regulated importin-beta cargo) - Importin beta complex formation. Importin subunit beta-1 (Homo sapiens), Q14974. 340,000 compounds, 0.031% hits. Rango CFP/YFP FRET sensor + importin beta, 45 min. Potency, µM (highest dose often 92.2 µM), for inactives: top-dose inhibition of complex formation; active = rising FRET ratio curve, often small or poorly fitted; inconclusive = mostly compound fluorescence or quenching in the first reads; inactive = flat curves in all reads;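 note: potency is the fitted concentration of half-maximal effect; 0% = DMSO wells and 100% = buffer wells lacking importin beta; nearly all actives have a fitted effect of over 15% in size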
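FRET biosensor Rango (snurportin 1 IBB between N-terminal EYFP and C-terminal Cerulean), 50 nM in PBS/1 mM DTT/0.02% Tween-20/0.1% BSA, preincubated 5 min RT with compound; 0.125 microM importin beta added, 45 min RT, CFP/YFP FRET ratio read.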
miR-21 reporter: qHTS Assay for Modulators of miRNAs and/orActivators of miR-21 | HeLa miR-21 FLuc reporter, luciferase, 48 h | Potency, µM (series often up to 38.3 µM), for the others: top-dose reporter change, positive = more light | 340,000 tested, under 10 active; active = well fitted rising curve with a large enough effect; inconclusive = small, poorly fitted or top-dose-only effect; inactive = no such curve, though single readings can be large or run the other way;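 note: % of control where 0% means no effect; miR-21 action dims this reporter so a rising signal means less miR-21 action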
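HeLa cells endogenously expressing miR-21, stably carrying CMV-driven firefly luciferase with a downstream miR-21 binding site, 2000 cells/well. Titrations up to approximately 40 uM, 48 hours; luciferase luminescence read.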
GLA inh pH 4.5: qHTS Assay for Inhibitors of Human alpha-Galactosidase at pH 4.5; 230,000 tested, under 10 active; purified enzyme, 4-MU-alpha-Gal fluorescence, pH 4.5; activity change, negative = inhibition, % at 105 µM; AID 1467, 2008; Alpha-galactosidase A (Homo sapiens), P06280; inconclusive = small, poorly fitted or top-dose-only inhibition, or a rising curve; inactive = flat fitted curve, though single readings scatter; no compound was filed as active;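 note: 0% = full activity with enzyme and -100% = basal without enzyme; dose as in the result columns while the protocol names 77 µM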
Target sequence (P06280 whole entry, looked up): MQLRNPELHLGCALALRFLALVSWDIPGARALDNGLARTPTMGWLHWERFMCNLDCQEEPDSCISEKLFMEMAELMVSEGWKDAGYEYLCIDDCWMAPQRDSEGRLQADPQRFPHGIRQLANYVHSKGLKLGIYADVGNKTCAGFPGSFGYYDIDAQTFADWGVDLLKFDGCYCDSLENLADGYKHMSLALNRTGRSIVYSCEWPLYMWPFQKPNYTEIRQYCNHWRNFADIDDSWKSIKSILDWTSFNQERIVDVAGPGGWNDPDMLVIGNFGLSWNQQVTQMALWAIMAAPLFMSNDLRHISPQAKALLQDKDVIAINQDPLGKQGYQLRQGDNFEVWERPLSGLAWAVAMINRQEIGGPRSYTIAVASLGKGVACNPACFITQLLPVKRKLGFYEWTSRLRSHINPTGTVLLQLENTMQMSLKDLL
Rango dissoc inh: qHTS Assay for Inhibitors of RanGTP induced Rango (Ran-regulated importin-beta cargo) - Importin beta complex dissociation. Biochemical FRET Rango-importin beta, RanGTP-induced dissociation. Potency, µM (series often up to 46.1 µM), without a hit: at the top dose activity change, negative = inhibition. 340,000 compounds, 0.071% hits. AID 540253, 2011; active means falling FRET ratio curve, often poorly fitted, with flat reads before Ran was added; inconclusive means other falling curves, or compound fluorescence or quenching; inactive means flat or rising ratio curve;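 note: potency is the fitted concentration of half-maximal effect; % of control where 0% means no effect; nearly all actives have a fitted effect of over 45% in size; -100% = wells without RanGTP and RCC1; the record marks most hits as doubtful in a second field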
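Rango FRET biosensor (snurportin-1 IBB flanked by N-terminal EYFP and C-terminal CFP10) at 0.1 uM, with 0.25 uM importin beta in PBS, 1mM DTT, 0.02% Tween-20, 0.1% BSA. 0.6 uM Ran, 2mM GTP and 0.2 uM RCC1 were then added for 45 min at room temperature. Inhibition read as loss of FRET rise.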
An asterisk follows results filed as active; ? = inconclusive; nt = no result given; [ ] = dose if it differs, or a comment. A portion of the library; the hit share may differ from the screen's.

SMILES | Rango-impB inh | miR-21 reporter | GLA inh pH 4.5 | Rango dissoc inh
OCCCCNCc1ccc(OCc2ccc(Cl)cc2Cl)cc1 | 4.4% | ? | -8 | 2%
O=C(CC1Oc2ccccc2NC1=O)NCCCN1CCCC1=O (stereo not drawn) | -6.0% | -1% | -17 | 24%
CC(=O)c1c(C)[nH]c(C(=O)NCCc2ccc(Cl)cc2)c1C | -1.2% | -16% | 1 | -6%
COc1cc(C(=O)NNC(=O)COc2ccc(Br)cc2)ccc1OCC(=O)N1CCOCC1 | 3.9% | nt | nt | -9%
CCCN(CC(=O)Nc1ccccc1C)C(=O)c1ccc2c(c1)S(=O)(=O)N=C1CCCCCN12 | 0.1% | nt | nt | -7%
Cc1nn2c(-c3ccncc3)ccnc2c1Cl | -2.3% | -24% | 6 | -12%
CCCn1nnnc1NC(=O)c1ccc(C)cc1Cl | 0.7% | -2% | -24 | 2%
Nc1ccc(N2CCOCC2)c(S(=O)(=O)Nc2ccccc2Cl)c1 | 0.0% | nt | nt | 5%
Cc1ccccc1NC1=C(Cl)C(=O)OC1OC(C)C (stereo not drawn) | 0.0% | -1% | -2 | -9%
CCCCn1c(N)c(N(CC(C)C)C(=O)c2ccncc2)c(=O)[nH]c1=O | -2.8% | nt | nt | -1%
Cc1ccc(-c2[nH]c3ccccc3c2C(C[N+](=O)[O-])c2ccco2)cc1 (stereo not drawn) | ? | 16% | 2 | -4%
O=C(CSCc1ccccc1)N/N=C/c1cc2c(cc1Br)OCO2 | 0.8% | -7% | -16 | 1%
Cc1ccc(C)c(NC(=O)CCN2CC(C)OC(C)C2)c1 (stereo not drawn) | -1.5% | -10% | -6 | -9%
COc1cc(C(C(=O)NC2CCCC2)N(Cc2ccccc2)C(=O)c2snc(C(N)=O)c2N)ccc1O (stereo not drawn) | -3.1% | -7% | nt | -11%
COc1ccccc1CNC(=O)COC(=O)c1ccccc1SCC(=O)N1CCCC1 | -1.8% | nt | nt | -5%
Cc1nn(-c2ccccc2)c(C)c1/C=N/NC(=O)c1cnccn1 | -0.5% | -14% | -1 | -15%
CC1CCc2sc(C(=O)NCC(C)(C)N3CCOCC3)cc2C1 (stereo not drawn) | -0.2% | nt | nt | -4%
Cc1ccc(S(=O)(=O)N2CCC(=O)N(C(COCc3cccc(C)c3)C(C)C)CC2)cc1 (stereo not drawn) | -0.1% | -8% | -4 | 13%
O=C(NCc1nnc(SC/C=C/c2ccccc2)o1)c1ccco1 | 2.5% | -9% | 1 | 4%
CC1(NC(=O)c2ccccc2)CCN(CCCc2ccccc2)C1=O (stereo not drawn) | -3.5% | nt | nt | 8%
O=C(Cc1ccc(S(=O)(=O)N2CCOCC2)s1)NC1CCCCC1 | 0.2% | nt | nt | -7%
CCCCCn1c2nc3ccccc3nc2c2c(=O)n(CC(C)C)cnc21 | -0.4% | -2% | -4 | -7%
O=C(COc1ccccc1)N=C1SC2CS(=O)(=O)CC2N1c1cccc(F)c1 (stereo not drawn) | 5.6% | -1% | nt | 0%
Cc1onc(-c2ccccc2)c1C(=O)Nc1ccc2c(C)cc(=O)oc2c1 | -3.2% | -10% | -2 | -6%
COc1ccc(NC(=O)CSc2nncn2C)cc1OC | -0.2% | -3% | -4 | 3%
CCOC(=O)Cn1cc(C(=O)C(C)(C)C)c2ccccc21 | 0.4% | 6% | 0 | 1%
COc1ccccc1OCC(=O)NNC(=O)c1ccc2c(=O)n3c(nc2c1)CCC3 | -0.6% | 8% | nt | 13%
COC(C[C@H](O)[C@@H](C)[C@@H](O)COCc1ccccc1)OC | -0.5% | -1% | 1 | 12%
CC(=O)c1cccc(NC(=O)CSCc2ccccc2)c1 | 4.5% | -28% | 8 | 6%
Cc1cc(N2C(=O)C(O)=C(C(=O)c3ccco3)C2c2ccc(Cl)cc2)no1 (stereo not drawn) | ? | 0% | nt | 5%
COc1ccc(N2CCN(c3ccc(N)cc3C#N)CC2)cc1 | -2.3% | 0% | -2 | -14%
CCOC(=O)C1CCN(S(=O)(=O)c2c(C)n[nH]c2C)CC1 | 2.7% | -1% | -6 | 5%
CC(C)c1ccc(N(CC(=O)NC(C)(C)C)C(=O)CCC(=O)Nc2nccs2)cc1 | -2.3% | 2% | nt | 14%
CC(C)(C)c1ccc(OCC(=O)N/N=C/c2ccsc2)cc1 | 0.3% | -10% | -11 | -15%
COC(=O)CN1C(=O)Nc2ccc(Br)cc2C1c1ccccc1Cl (stereo not drawn) | 0.4% | 4% | -15 | -8%
O=C(NN=C1CCCC1)c1cccc(Br)c1 | -3.6% | -19% | nt | -20%
CCC(O)(c1ccc(OC)cc1)C(CN1CCOCC1)c1ccccc1 (stereo not drawn) | -2.7% | -7% | -5 | 1%
CC(C)CC(OC(=O)c1ccco1)C(=O)NC1CCCC1 (stereo not drawn) | -0.1% | 2% | nt | ?
OCCn1c(SC2CCCCC2)nc2ccccc21 | ? | -9% | -2 | -13%
Cc1ccc(SCCNC(=O)c2ccc([N+](=O)[O-])c(C)c2)cc1 | 4.1% | -2% | nt | 23%
CC12CCC(C(=O)Nc3cccnc3)(CC1=O)C2(C)C (stereo not drawn) | 0.2% | 0% | -5 | 11%
CN(C)/C=C(/C(=O)c1ccc(Cl)cc1)S(=O)(=O)c1ccccc1 | 1.0% | -78% | -21 | -1%
CC[n+]1c(-c2ccc(C)cc2)csc1Nc1c(C)n(C)n(-c2ccccc2)c1=O | 0.0% | 17% | -1 | 7%
COc1ccc(NC(=O)CCCc2c[nH]c3ccccc23)cc1OC | 4.3% | -24% | -7 | 14%
O=C1NCCN1Cc1ccccc1F | -1.7% | -3% | -8 | 10%
Cc1ccccc1NC(=O)Nc1ccccc1C(=O)NCc1ccccc1 | -2.7% | -13% | 3 | -13%
Cc1ccc(C(=O)n2nc(-n3cccc3)c3c(C)cc(C)nc32)cc1 | -6.4% | 1% | -1 | -3%
Nc1cccc2nc3ccccc3cc12 | -2.7% | ? | ? | ?
Cn1nnc2cc(NC(=O)NCc3ccc4c(c3)OCO4)ccc21 | 0.0% | -8% | -6 | -5%
O=C(NCCc1ccccc1)c1cccc2c1C(=O)N(C1CCCCC1)C2 | -0.3% | -3% | nt | -22%

The list continues.
SMILES | Rango-impB inh | miR-21 reporter | GLA inh pH 4.5 | Rango dissoc inh
CC1(C)C(=O)Nc2ccccc2N1C(=O)COC(=O)c1cc(S(=O)(=O)N2CCOCC2)ccc1F | 2.5% | -3% | 11 | 28%
O=S(=O)(NN1CCOCC1)c1ccc(Br)cc1 | 0.0% | -1% | nt | -5%
O=C(Nc1ccccc1N1CCCC1)c1ccc([N+](=O)[O-])cc1Cl | 0.5% | -2% | 0 | -13%
O=C(CCN1C(=O)c2cccnc2C1=O)NC1CCCCCC1 | -3.4% | 6% | -16 | -9%
Cc1cccc(C)c1NC(=O)Cn1c(=O)c(N2CCCCC2)c(N)n(C)c1=O | -2.1% | nt | nt | 0%
COC(=O)C1(c2ccccc2)NC(c2ccc(O)cc2)C2C(=O)N(c3ccc4c(c3)OCO4)C(=O)C21 (stereo not drawn) | 2.6% | -1% | 9 | -13%
O=C(CN1CCN(c2ccccc2)CC1)Nc1ccccc1Cl | 0.2% | -6% | -5 | 2%
O=C(CC1Sc2ncnn2C1=O)Nc1ccc(Cl)cc1 (stereo not drawn) | 1.6% | 0% | -3 | 3%
CC(C)C(NS(=O)(=O)c1ccc2c(c1)OCCO2)C(=O)NCCc1ccccn1 (stereo not drawn) | -0.6% | -4% | 7 | 14%
CC1=CCC2C(=O)N(CCc3c[nH]c4ccccc34)C(=O)C2C1 (stereo not drawn) | -0.6% | -34% | -1 | 8%

2 entries from above, with the structure last:
Rango-impB inh | miR-21 reporter | GLA inh pH 4.5 | Rango dissoc inh | SMILES
-3.4% | 6% | -16 | -9% | O=C(CCN1C(=O)c2cccnc2C1=O)NC1CCCCCC1
-2.1% | nt | nt | 0% | Cc1cccc(C)c1NC(=O)Cn1c(=O)c(N2CCCCC2)c(N)n(C)c1=O

(more compounds)
SMILES | Rango-impB inh | miR-21 reporter | GLA inh pH 4.5 | Rango dissoc inh
COC(=O)c1ccc2c(=O)n(CCCCCC(=O)O)c(=O)[nH]c2c1 | 5.3% | 18% | ? | 10%
O=C(COC(=O)c1cc(=O)c2ccccc2o1)Nc1ccc2ccccc2c1 | 2.6% | -9% | 4 | 9%
O=C(COC(=O)CCC1CCCC1)Nc1ccc(F)cc1Cl | 0.4% | nt | nt | 0%
CCC(=O)Nc1ccc(C(=O)N/N=C/c2cccnc2)cc1 | -8.1% | -2% | 6 | -16%
Cc1ccc(Sc2c([N+](=O)[O-])c(C)nn2C)cc1 | 4.1% | 2% | 3 | 22%
O=C(CSc1nc(-c2ccccc2)nc2ccc(F)cc12)Nc1cccc(C(=O)O)c1 | -0.9% | 2% | -8 | 16%
Cc1ccccc1NS(=O)(=O)c1ccc(C)c(NS(C)(=O)=O)c1C | 0.3% | 0% | -18 | 0%
O=C1COc2ccc(C(=O)COC(=O)Cc3c(F)cccc3Cl)cc2N1 | 2.5% | nt | nt | 17%
O=C(Cc1c[nH]c2ccccc12)NCc1cccs1 | -0.2% | -20% | 1 | 2%
CCOC(=O)C1=C(Cc2ccc(Cl)cc2)C(=O)c2ccccc2C1=O | ? | ? | -9 | ?
O=[N+]([O-])c1ccc(/C=N/Nc2ncc(Br)cn2)cc1 | -4.3% | -3% | nt | -6%
C=CCSC1=C(C#N)C(c2cc(Br)c(O)c(OC)c2)CC(=O)N1 (stereo not drawn) | -1.5% | 0% | 6 | -16%
O=C(c1ccco1)N1CCN(S(=O)(=O)c2ccc3c(c2)OCCO3)CC1 | -0.5% | -6% | 0 | -6%
O=[N+]([O-])c1ccccc1C=CC=NN=Cc1ccccc1O | -1.0% | nt | nt | -1%
CCOc1cc(/C=N/N=C/c2ccc(O)c(OCC)c2)ccc1O | -4.2% | 5% | nt | 0%
O=C(NCCN1Cc2ccccc2C1=O)c1cccs1 | -6.0% | -41% | 1 | 28%
Cc1cc(C)c[n+](CC(=O)c2c(C)cc(C)c([N+](=O)[O-])c2C)c1 | 1.1% | -4% | nt | -5%
COc1ccc(-n2nnnc2SCC(=O)Nc2ccccc2N2CCOCC2)cc1OC | -1.2% | -9% | -10 | 2%
Cc1ccc(S(=O)(=O)N2[C@@H](c3ccc(C(C)(C)C)cc3)C(C(=O)O)=CC[C@H]2c2ccc(C(C)C)cc2)cc1 | 0.7% | nt | nt | -1%
Cc1cc(C)nc(N2CCC(C(=O)NCc3ccccc3F)CC2)n1 | -1.2% | -1% | -4 | 1%
COC(=O)CC1=NN(c2ccc(OC)cc2)C(=O)/C1=C\c1ccc(Cl)cc1 | 3.6% | -7% | -16 | -7%
Cc1cc(C)nc(NS(=O)(=O)c2ccc(NC(=O)Nc3ccccc3)cc2)n1 | 0.5% | -20% | 6 | -21%
Cc1nc(N)sc1-c1csc(Nc2cccc(C(=O)O)c2)n1 | ? | -4% | nt | -1%
CCCCCC(=O)Nc1ccc(C(=O)COC(=O)c2ccccn2)cc1 | -2.1% | nt | nt | -1%
COc1ccc2[nH]c(=O)c(CN(c3ccc(C)c(C)c3)S(C)(=O)=O)cc2c1 | -0.3% | -5% | 7[21.1 µM] | 2%
Cc1cc(C)n(CC(O)COc2ccccc2C)n1 (stereo not drawn) | 4.3% | -11% | -21 | 5%
CC(C)NC(=O)COC(=O)c1ccc(O)cc1 | -1.9% | 2% | 5 | -5%
CCOCc1nnc(NC(=O)CSc2ccc(C)cc2)s1 | ? | 0% | -2 | -5%
CCCC(=O)OCCn1c(Br)nc2c1c(=O)[nH]c(=O)n2C | 0.2% | 0% | -3 | -13%
CS(=O)(=O)N(Cc1nc2sc3c(c2c(=O)[nH]1)CCCC3)C1CCCCC1 | -1.9% | nt | nt | -9%
O=C(CSc1nc2ccccc2[nH]1)Nc1ccccc1N1CCOCC1 | -1.5% | 1% | 1 | -3%
O=C(CN1CCCC1)NC(c1ccccc1)c1ccccc1 | 0.0% | 2% | nt | 31%
O=C(NCc1cccnc1)Nc1ccccc1F | 2.9% | -23% | 1 | 2%
